TRPV1 potentiator: HTS Assay for Compounds that Act as Potentiators of the Vanilloid Receptor 1; potentiation, % at 8.33 µM; TRPV1-expressing cells, Fluo-8 calcium influx, capsaicin EC20 potentiation; host cell line not named in the record; control for the full effect not named in the record; AID 540277, 2011; actives 0.02% (n = 320,000); active means potentiation above 80%; inconclusive means 30% to 80%; inactive means below 30%; further: 0% is about no effect
Target sequence (Q8NER1 whole entry, looked up): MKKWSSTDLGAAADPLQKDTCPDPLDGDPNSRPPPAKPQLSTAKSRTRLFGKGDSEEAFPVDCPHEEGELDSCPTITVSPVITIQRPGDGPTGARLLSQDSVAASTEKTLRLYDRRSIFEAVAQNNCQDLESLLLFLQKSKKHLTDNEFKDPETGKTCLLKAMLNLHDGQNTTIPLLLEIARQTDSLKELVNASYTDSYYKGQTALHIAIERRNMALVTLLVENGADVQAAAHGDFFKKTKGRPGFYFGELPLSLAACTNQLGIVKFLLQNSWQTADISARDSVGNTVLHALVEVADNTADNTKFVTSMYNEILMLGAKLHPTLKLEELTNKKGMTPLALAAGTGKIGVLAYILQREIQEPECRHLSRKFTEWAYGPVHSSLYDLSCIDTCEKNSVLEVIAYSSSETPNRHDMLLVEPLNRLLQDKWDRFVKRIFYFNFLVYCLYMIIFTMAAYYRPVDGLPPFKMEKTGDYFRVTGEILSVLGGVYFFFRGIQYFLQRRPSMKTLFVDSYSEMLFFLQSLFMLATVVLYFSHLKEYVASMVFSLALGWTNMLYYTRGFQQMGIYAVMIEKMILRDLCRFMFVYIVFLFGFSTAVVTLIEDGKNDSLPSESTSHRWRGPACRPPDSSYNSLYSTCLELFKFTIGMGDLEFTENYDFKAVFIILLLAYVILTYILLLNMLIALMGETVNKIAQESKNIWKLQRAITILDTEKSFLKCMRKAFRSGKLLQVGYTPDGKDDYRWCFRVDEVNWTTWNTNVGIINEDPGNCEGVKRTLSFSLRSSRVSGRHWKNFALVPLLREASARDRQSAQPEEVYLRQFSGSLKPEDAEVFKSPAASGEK
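Cells expressing TRPV1 were dye-loaded with Fluo-8 and read kinetically: 10 s baseline, 3 min after compound (agonist portion), then 2 min after EC20 capsaicin (allosteric enhancer portion). Calcium-bound dye fluorescence at 480/520 nm.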
ClpP mod: qHTS Assay for Activators of ClpP. ATP-dependent Clp protease proteolytic subunit (Bacillus subtilis (strain 168)), P80244. purified B. subtilis ClpP, FRET peptide cleavage, 20 min. Potency, µM (doses to about 57.5 µM), inactives show at the top dose activity change, negative = active. AID 651965, 2013. actives 1.9% (n = 340,000); active = well fitted falling curve with a large enough effect; inconclusive = small, poorly fitted or top-dose-only effect; inactive = no such curve, though single readings can be large or run the other way; further: potency means the concentration at half of the fitted maximal effect; the source files actives as falling curves though it sought activators and does not explain the sign; nearly all actives have a fitted effect of over 65% in size; many hits overshoot -100%
Target sequence (P80244 whole entry, looked up): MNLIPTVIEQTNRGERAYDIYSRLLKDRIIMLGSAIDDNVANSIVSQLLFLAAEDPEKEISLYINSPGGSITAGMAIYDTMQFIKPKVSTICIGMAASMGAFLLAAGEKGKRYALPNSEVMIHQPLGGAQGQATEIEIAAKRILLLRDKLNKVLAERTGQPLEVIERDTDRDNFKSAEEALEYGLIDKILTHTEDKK
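FRET quenching reversal measured ClpP activation: 10 microg/mL B. subtilis ClpP at pH 8 with the FRET-FV decapeptide, read at 430 nm after 320 nm excitation. The 20-min minus 0-min signal was scaled between DMSO/no-enzyme wells and ADEP (5.8 microM final).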
TRPML1 inh: qHTS for Inhibitors of the Human Mucolipin Transient Receptor Potential 1 (TRPML1) | Mucolipin-1 (Homo sapiens), Q9GZU1 | TRPML1-inducible cells, Ca2+ dye fluorescence, FDSS; stronger effect = lower value; inhibition of EC80 agonist-evoked calcium signal | activity change, negative = inhibition, % (test concentration not listed) | actives 0.02% (n = 390,000) | AID 624415, 2012; in the data active means activity change below about -50%; inconclusive means about -30% to -50%; inactive means above about -30%;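 further: stimulus is agonist 54-4 at its EC80 concentration; on the % scale 0 is the no-effect control and ±100 the full control effect; compound concentration not given in the record; the text of the record puts the active cut at -80%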
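Calcium fluorescence in TRPML1-DL cells induced overnight with Tet: a 110 s read after compound pin addition, then a 110 s antagonist read after challenge with 54-4 at 4 uM final (EC80).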
Menin MLL FP FL: qHTS Assay for Inhibitors Targeting the Menin-MLL Interaction in MLL Related Leukemias: Competition With Fluorescein Labeled MLL-derived Peptide | Fluorescence polarization, fluorescein-MLL peptide displacement from menin | FP activity change, % at 61.4 µM | 290,000 tested, under 10 active | AID 1766, 2009; inconclusive = falling polarisation curve, or a change in total fluorescence; inactive = total fluorescence flat and polarisation flat or rising; no compound was filed as active; the % refers to the polarisation; negative = inhibition;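 further: % of control where 0% means no effect; inhibitors lower the polarisation; unlabelled MLL peptide was the positive control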
Sfp PPTase inh: qHTS Assay for Inhibitors of Bacillus subtilis Sfp phosphopantetheinyl transferase (PPTase); 4'-phosphopantetheinyl transferase ffp (Bacillus subtilis), Q9F4F7; Biochemical Sfp PPTase activity, qHTS; Potency, µM, for inactives: max response, negative = inhibition, actives largely listed as inhibitors; actives 3.5% (n = 310,000); AID 1490, 2009; active means well fitted inhibition curve with a large enough effect; inconclusive means small, poorly fitted or top-dose-only effect, or another doubt; inactive means no such curve, though single readings can be large or run the other way;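 further: the enzyme is Sfp with the accession as filed and its product quenches rhodamine fluorescence; potency means the concentration at half of the fitted maximal effect; 0% = enzyme reaction without inhibitor and -100% = no enzyme wells; top concentration of the series not given in the record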
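Sfp 15 nM + cpd, 15 min RT; start w/ rhodamine-CoA 5 uM, BHQ-2-YbbR 12.5 uM (final); 50 mM Hepes pH 7.6, 10 mM MgCl2, 0.01% NP-40, 0.01% BSA; read 525/598 nm at 0 and 30 min.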
PINK1 expr mod: A Quantitative High throughput Screen to Identify Chemical Modulators of PINK1 Expression. actives 0.2% (n = 410,000). AID 624263, 2012. PINK1 immunofluorescence, high-content cytometry, 24 h. Potency, µM (series often up to 76.6 µM), for the others: at the top dose activation (PINK1 increase), most hits filed as activators; active = well fitted activation curve with a large enough effect; inconclusive = small, poorly fitted or top-dose-only effect; inactive = flat fitted curve, though single readings scatter; cell line not stated here;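 further: potency means the concentration at half of the fitted maximal effect; % of control where 0% means no effect; nearly all actives have a fitted effect of over 65% in size; a mitochondrial uncoupler was the plate control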
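Compound titrations (5 concentrations, 24 h) on a stable cell line; DMSO and CCCP controls. Endpoint: fixed-cell PINK1 immunofluorescence with mitochondrial, cell and nuclear markers, scanned by microplate cytometer.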
TRPML1 agonist: qHTS for Agonists of the Human Mucolipin Transient Receptor Potential 1 (TRPML1); Mucolipin-1 (Homo sapiens), Q9GZU1; TRPML1-expressing cells, Ca2+ dye fluorescence, FDSS; host cell line not named in the record; reference of the full effect not given here; activation, % (test concentration not listed); actives 0.12% (n = 410,000); in the data active = activation above about 50%; inconclusive = about 30% to 50%; inactive = below about 30%; further: 0% is about no effect; the text of the record puts the active cut at 80%
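Kinetic FDSS Ca2+ read in Tet-induced TRPML1-DL cells (ABD Ca8 dye plus quencher, 45-90 min RT loading): baseline, then compound, then 110 s agonist window; EC80 agonist 54-4 at 4uM final added afterwards for a 110 s antagonist window.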
* hit, by the source's call; ? = inconclusive; nt = no result given; & = joins results of further samples; [ ] = another dose, or the depositor's remark.

Results follow in this order: TRPV1 potentiator, ClpP mod, TRPML1 inh, Menin MLL FP FL, Sfp PPTase inh, PINK1 expr mod, TRPML1 agonist
c1coc(-c2ccnc3nc(-n4cccc4)nn23)c1
→ ?, nt, -10, 3.5, -29%, -1.1%, -0.2
COc1cccc(OC)c1OCCCCN1CCC(Cc2ccccc2)CC1
→ -12, nt, 7, -4.4, -3%, 1.7%, 0.6
O=C(O)C1Cc2ccccc2-c2ccccc2C1
→ 10, 1.4%, -14, 4.8, 8%, -0.2%, 0.4
COc1ccc2[nH]c3c(c2c1)CCN1C(=O)C(CC(=O)NCCCn2ccnc2)C[C@H](C(=O)N(C(C)C)C(C)C)[C@@]31C (some centres undefined)
→ nt, -3.6%, -9, nt, nt, 0.3%, -0.9
COc1ccc(/C=C/C(=O)N2CCC(c3nc4ccccc4o3)CC2)cc1OC
→ nt, ?, -1, nt, nt, 0.8%, 1.5
CN(C)CCCN(C(=O)c1ccc(Br)s1)c1nc2cc3c(cc2s1)OCO3
→ -9, -2.2%, nt, -0.5, 6%, -1.4%, nt
O=C(O)CCCCCNS(=O)(=O)c1ccc2c3c(cccc13)C(=O)N2
→ 0, 0.5%, 1, -0.8, -1%, 2.2%, -0.9
O=C(N1CCN(c2ccccc2)CC1)C1(c2cccs2)CCOCC1
→ -11, 0.3%, -23, 5.7, 7%, 0.1%, -0.4
O=C(CCNS(=O)(=O)c1ccc(OC(F)(F)F)cc1)N1CCN(C/C=C/c2ccccc2)CC1
→ -8, ?, 1, nt, 24%, -0.4%, 0.0
CCOC(=O)c1c(C)[nH]c(C)c1S(=O)(=O)N1CCN(c2ccc(Cl)cc2)CC1
→ nt, -0.4%, 4, nt, nt, -0.8%, -0.6
CN(C)c1ccc(NC(=O)CSc2nnc(-c3ccco3)c(-c3ccco3)n2)cc1
→ -5, nt, -10, -3.3, ?, 6.0%, -0.1
COc1ccc(OC)c(C2C(C(=O)O)c3ccccc3C(=O)N2C)c1 (centres undefined)
→ -6, -0.8%, 5, -0.3, 17%, 4.1%, -0.6
CCOc1ccccc1N(CC(=O)Nc1ccc(OC)c(Cl)c1)S(=O)(=O)c1ccccc1
→ nt, -15%, 49, nt, nt, 0.9%, 2.3
COc1cccc(NC(=O)N2CCC(NC(=O)C3CCCCC3)CC2)c1
→ 14, nt, 4, -0.5, 2%, -0.2%, 0.7
COc1cccc(NC(=O)COC(=O)c2c(F)cccc2Cl)c1
→ -5, -1.5%, -8, 9.5, 0%, 0.9%, -1.2
O=C(c1cc(-c2ccc(F)cc2)on1)N1CCN(c2ccc(F)cc2)CC1
→ 3, 1.1%&-1.3%, 21&11, 1.1, 9%, 13%&1.8%, -1.8&1.3
O=C(CSc1nc2cc([N+](=O)[O-])ccc2n1-c1ccc(F)cc1)NC1CCS(=O)(=O)C1 (centres undefined)
→ -7, -1.1%, -4, 5.3, 8%, 1.9%, -0.3
Cc1cc(C(=O)COC(=O)c2ccc[nH]c2=O)c(C)n1C
→ -18, -0.9%, 3, nt, -4%, -1.1%, 1.3
O=C(Nc1nnc(CCc2ccccc2)s1)c1ccccc1
→ -21, -12%, -5, 2.4, 4%, 4.8%, 0.2
Cc1nc2ccccn2c1P(=O)(N1CCCCC1)N1CCCCC1
→ -62, -21%, 0, -0.2, -1%, nt, 0.1
CCOc1ccccc1NC(=O)C1CCC(CNS(=O)(=O)c2ccc3c(c2)CCCC(=O)N3)CC1 (centres undefined)
→ nt, 1.1%, 35, nt, nt, 0.7%, -1.2
CC1CCCC(C)N1S(=O)(=O)c1ccc(S(=O)(=O)N2CCOCC2)cc1 (centres undefined)
→ -5, 0.9%, nt, 0.8, 18%, 3.4%, nt
CNC(=O)c1ccsc1NC(=O)CS(=O)(=O)c1ccc(Cl)cc1
→ 0, 1.6%, -3, nt, 10%, 0.6%, -0.2
CN1C(=O)c2ccccc2Sc2ccc(NC(=O)COc3ccc(F)cc3)cc21
→ nt, -1.7%, 30, nt, nt, 8.0%, 2.2
Cc1onc(-c2ccccc2)c1C(=O)OCC(=O)Nc1ccccc1Cl
→ nt, 0.0%, 15, nt, nt, 12%, 0.6
Cc1ccc(NS(=O)(=O)Cc2ccccc2)cc1Cl
→ -15, -1.9%, -15, 0.1, 16%, 5.8%, -0.1
COC(=O)c1ccc(C)c(NC(=O)CN(c2ccc3c(c2)OCO3)S(C)(=O)=O)c1
→ 15, -1.8%, -3, 0.0, -1%, -5.0%, 0.3
CCc1nc2ccc(Cc3ccc4nc(CC)[nH]c4c3)cc2[nH]1
→ -1, 1.9%, 12, 12, 9%, 11%, 1.3
OCCNc1nc(N2CCOCC2)nc(N2CCOCC2)n1
→ -14, -7.7%, 31, -1.5, 5%, 2.7%, -0.3
CCOc1cc(S(=O)(=O)n2ccnc2)ccc1Br
→ -8, nt, -22, 2.4, -6%, -2.6%, 1.8
CCOc1ccc(/C=N/NC(=O)c2ccc(CSc3nc4ccccc4[nH]3)cc2)cc1
→ 1, ?, 12, 3.9, -3%, 1.5%, 4.1
Cn1cnnc1SCC(=O)Nc1cccc(C(=O)O)c1
→ 8, 0.2%, 0, 0.3, 9%, nt, -0.2
O=C(OCC(=O)N1CCC(Cc2ccccc2)CC1)c1cc(Cl)ccc1O
→ 3, -1.1%, 28, nt, nt, 1.0%, 2.6
O=C(NCCN1CCNCC1)c1ccccn1
→ 17, 2.2%, 42, -2.0, ?, 2.2%, -0.3
CCOc1ccccc1CN1CCNC(=O)C1CC(=O)NCCc1ccccn1 (centres undefined)
→ -2, -3.5%, -23, -13, 16%, -1.1%, -0.2
Cc1ccc(C)c(N2C(=O)CC(Cc3ccc(Br)cc3)C2=O)c1 (centres undefined)
→ -12, 0.4%, -13, 3.3, 6%, 1.3%, -0.4
O=C(O)c1ccc(S(=O)(=O)N2CCC(NC(=O)C3CCCCC3)CC2)cc1
→ -3, nt, 3, -1.7, 6%, 1.2%, -0.3
CCCCOc1ccc(Nc2nc(C)cc(C)c2C#N)cc1
→ ?, 221%, -9, -0.9, -7%, nt, 0.8
COc1ccc(C2=C(C(C)=O)Sc3nnc(-c4ccc(C)cc4)n3N2C(C)=O)cc1OC
→ nt, -25%, 26, nt, nt, 1.4%, 2.8
Cc1cccc(C)c1NC(=S)NCCc1ccc(O)c(O)c1
→ -10, -25%, 0, -1.6, 50µM*, 2.5%, -0.2
N#Cc1nc2ccccc2n1OCc1ccccc1
→ nt, -1.7%, -1, nt, nt, 0.0%, 0.6
O=C(N/C(=C\c1ccc(Cl)cc1)C(=O)N1CCOCC1)c1ccco1
→ -3, nt, -14, -1.7, 11%, -1.0%, 0.8
CCOC(=O)CC(NC(=O)N1CCC(CN2CCC(C)CC2)CC1)c1ccccc1 (centres undefined)
→ nt, -1.4%, 11, nt, nt, -1.3%, -0.3
Fc1ccc(-c2cc(C(F)(F)C(F)F)[nH]n2)cc1
→ 0, nt, 3, 2.2, 0%, 1.3%, 11
COc1ccc2c(c1)c1c(c(=O)n(-c3cccc(C)c3)c(=O)n1CC(=O)N1CCCC1)n2C
→ nt, 3.8%, -2, nt, nt, 0.4%, -0.3
CC1CCCCN1S(=O)(=O)c1ccc(NC(=O)CSc2nnnn2C)cc1 (centres undefined)
→ -1, 1.5%, -10, 2.2, -8%, -2.8%, 0.3
Cc1cccc(C)c1NC(=O)c1csc([C@@H]2O[C@H](CO)[C@H](O)[C@H](O)[C@H]2O)n1
→ nt, 0.4%, nt, nt, nt, 0.0%, -0.6
c1ccc2c(c1)nnn2Cc1nnc2sc(-c3ccncc3)nn12
→ -8, -6.3%, 17, 7.0, 40µM*, -0.6%[38.3 µM], -0.4
Cc1cccc(OCCC(=O)N(C)CC(=O)Nc2cccc3ccccc23)c1
→ -14, -3.3%, -22, 7.0, 3%, 0.8%, 1.8
COc1cccc(CNC(=O)CCCN2C(=O)CCn3nc(-c4cccn4C)cc32)c1
→ nt, -0.2%, 25, nt, nt, 2.5%, 0.8

(list continues)
Results follow in this order: TRPV1 potentiator, ClpP mod, TRPML1 inh, Menin MLL FP FL, Sfp PPTase inh, PINK1 expr mod, TRPML1 agonist
CNC(=O)NC(=O)CSc1nnc(-c2ccco2)n1-c1ccccc1
→ 2, -0.8%, 15, 0.0, 17%, -0.7%, -0.2
CC(=O)Nc1ccc(NC(=O)Nc2cccc3ccccc23)cc1
→ -6, -25%, 34, nt, -13%, -0.3%, 0.4
Cc1cccc(OCC(=O)N(Cc2ccc(C(C)C)cc2)Cc2ccco2)c1C
→ nt, -0.3%, -17, nt, nt, 20%, 1.5
COc1ccccc1C(=O)NC(=O)CSc1nnc(N)s1
→ -11, -1.7%, 19, nt, nt, -0.3%, 0.3
COC(=O)c1c(NC(=O)COc2c(C)ccc(C)c2C)sc2c1CCC(C)C2 (centres undefined)
→ nt, -3.6%, 23, nt, nt, 0.3%, -0.4
CCC(C(=O)Nc1cccnc1)n1c(=O)[nH]c2ccccc2c1=O (centres undefined)
→ 1, 0.6%, 17, 0.9, 12%, 1.1%, 0.3
CCN(CC)S(=O)(=O)c1nnc(NC(=O)c2ccco2)s1
→ -5, nt, 3, 5.0, 7%, 2.4%, 0.7
CC1=C(C(=O)Nc2ccccc2C)C(c2ccccn2)n2nc(SCc3ccccc3F)nc2N1 (centres undefined)
→ nt, -0.2%, -17, nt, nt, 3.5%, 0.4

Screening results: PubChem, National Center for Advancing Translational Sciences (NCATS)
